StopGo RLuc – Primary qHTS Assay for Foot and Mouth Disease Virus Antivirals against NCGC Sytravon and CBC Compound Libraries: Renilla Luciferase Signal; AID 1745857, 2022; 120,000 compounds, 0.32% hits; Potency, µM (doses to about 57.5 µM), without a hit: at the highest dose signal change, negative = less light; HEK cells with a luciferase reporter of 2A StopGo recoding; active means well fitted falling curve with a large enough effect; inconclusive means small, poorly fitted or top-dose-only effect; inactive means no such curve, though single readings can be large or run the other way; note: nearly all actives have a fitted effect of over 55% in size; overnight with compound
2A firefly – Primary qHTS Assay for Foot and Mouth Disease Virus Antivirals against NCGC Sytravon and CBC Compound Libraries: Firefly Luciferase Signal; 120,000 compounds, 0.23% hits; Potency, µM (series often up to 57.5 µM), for the others: at the highest dose signal change, negative = less light; HEK cells with a luciferase reporter of 2A StopGo recoding; active = well fitted falling curve with a large enough effect; inconclusive = small, poorly fitted or top-dose-only effect; inactive = no such curve, though single readings can be large or run the other way; note: nearly all actives have a fitted effect of over 60% in size; overnight with compound
Starred values were filed as active, the others as inactive; u = inconclusive; & = joins results of further samples; [ ] = another dose, or the depositor's remark. % is set by controls: 0 for no effect and ±100 for the full control effect; potency is the fitted concentration of half-maximal effect. The list is partial, so the mix of outcomes need not match the whole.

SMILES | StopGo RLuc | 2A firefly
CSc1cccc(NC(=O)NC(C)c2ccc(Cl)s2)c1 (configuration not stated) | 4.0% | u
NCC1CC2CCC1C2 (configuration not stated) | 0.5% | -7.4%
NS(=O)(=O)c1ccc(NC(=O)c2ccc([N+](=O)[O-])cc2[N+](=O)[O-])cc1 | -19.8% | 3.5%
Cc1cc(C(=O)CSc2nnc(C(C)Oc3ccc(F)cc3)o2)c(C)n1CC(F)(F)F (configuration not stated) | 5.9% | 5.3%
Cc1cccc(CCNC(=O)CCS(=O)(=O)c2cc3c(cc2Cl)NC(=O)CO3)c1 | -4.0%&-8.2% | 11.8%&5.9%
CCOc1ccc(C(=O)Nc2nonc2CC)cc1 | 23.5% | 200.6%[activator]
Cc1sc(-c2cc3ccccc3oc2=O)nc1-c1ccc(Cl)cc1 | -13.2% | -16.5%
CC(NC(=O)c1ccccc1Cc1ccccc1)c1ccncc1 (configuration not stated) | 10.5% | 1.7%
CSc1ncccc1C(=O)N(Cc1nnc(-c2ccccc2Cl)o1)C(C)C | -2.1% | -4.0%
Cn1c(=O)[nH]c(=O)c2[nH]c(CN3CCN(c4cccc(Cl)c4)CC3)nc21 | 0.5% | 8.5%
Cc1oc(-c2ccccc2)nc1C(=O)Nc1nc(CC(N)=O)cs1 | 11.0% | 30.1%[activator]
CC1(C)CC(=O)C/C(=N/NC(=O)c2ccc(NC(=O)C3CC3)cc2)C1 | 0.0% | 0.0%
COc1ccc2oc(=O)cc(CN3CCN(Cc4ccc(F)cc4)CC3)c2c1 | -5.9% | -3.1%
CCOc1ccc(NC(=O)CSc2nccc(-c3cccc(OC(F)F)c3)n2)cc1 | -13.4% | -5.2%
CN(C(=O)CSc1nc2ccc(NC(=O)c3ccc(F)cc3)cc2s1)c1ccccc1 | u | u
Cc1ccc2nc(C)cc(C(=O)OC(C)C(=O)NCC(C)C)c2c1 (configuration not stated) | -11.1% | -6.3%
COc1ccc(Cl)cc1NC(=O)CSc1cn(CC(=O)N2CCCC2)c2ccccc12 | -2.4% | -31.1%
COc1ccc(N(Cc2cccs2)C(=O)Cn2nnc(-c3cccc(F)c3)n2)cc1 | 12.6% | 7.8%
CSc1ccc(Nc2nn(-c3ccc(OC(F)(F)F)cc3)nc2C(C)=O)cc1 | -14.1% | -5.3%
CCCc1cc(C(=O)N/N=C2\CC3CCC2(C)C3(C)C)cs1 (configuration not stated) | 51.0%[activator] | 0.0%
CCSc1ccccc1C(=O)NC(C)C | 10.3% | 17.0%
CCOc1cccc2sc(N3CCN(C(=O)c4ccco4)CC3)nc12 | -9.3% | -18.2%
COc1ccccc1OCC(=O)Nc1cccc(-c2nc3ccccc3o2)c1 | 12.9% | 106.1%[activator]
CN(C)CCNc1oc(/C=C/c2cccs2)nc1C#N | -14.9% | 15.5%
O=C(CCC(=O)N1CCC(c2noc3ccc(F)cc23)CC1)N1CCCCCC1 | u | u
CNC1(C)C2CCC(C2)C1(C)C (configuration not stated) | 8.0% | 10.2%[11.5 µM]
Cc1noc(Cn2c(=O)c3cc4c(cc3n(CC(=O)Nc3ccccc3Br)c2=O)OCO4)n1 | -7.8% | -6.5%
COc1ccc(NCc2ccccc2-c2nnc(-c3ccccc3)o2)cc1Cl | -7.0% | 58.5%[activator]
CC1=C(c2ccc(Cl)cc2)[N+](=O)C(C)(C)N1[O-] | 13.9%[1.06 µM] | u
COc1ccc(Br)cc1/C=N/OC(C)=O | 8.5% | 0.0%
O=C(Nc1ccc2oc(=O)ccc2c1)c1ccc(Cl)cc1 | -0.8% | 98.9%[activator]
COc1cccc(CN(C(=O)c2ccc(C(C)(C)C)cc2)C2CCS(=O)(=O)C2)c1 (configuration not stated) | 4.0% | -6.2%
Cc1cc(C)c(S(=O)(=O)N2CCC(N3CCN(Cc4ccc(F)cc4)C(=O)C3=O)CC2)c(C)c1 | -17.5% | -22.9%
O=C(O)c1cccc(CSc2ccc3c(c2)OCCO3)c1 | 18.9% | -83.6%
CCOC(=O)C1=C(CN2CCCCC2)NC(=O)NC1c1cc(C)ccc1C (configuration not stated) | -3.6% | -10.5%
CCc1nc2ccccc2c(C(=O)OCC(=O)NCCc2ccccc2)c1C | 15.3% | 9.5%
CNC(=S)NNC(=O)c1cccc(Cl)c1 | 13.1% | 0.0%
CNCc1ccc(-c2cc(Cl)cc(Cl)c2)o1 | 1.7% | 7.5%
O=C(Nc1ccccc1C(=O)OCc1cc(=O)n2nc(C3CC3)sc2n1)c1ccc(Cl)cc1 | -5.4% | -11.9%
O=C(CSc1ncc(-c2ccccc2)o1)Nc1ccc(F)c(F)c1 | 31.0%[activator] | 80.8%[activator]
CCc1ccc2c(c1)c(=O)c(S(=O)(=O)c1ccc(F)cc1)cn2CC(=O)Nc1ccccc1OC | -8.4% | -15.9%
Cc1ccc(NC(=O)c2cc(=O)c3ccccc3o2)cc1S(=O)(=O)N1CCCCC1 | 135.1%[activator] | 0.0%
CCc1cccc(-n2c(C)nc3c(cnn3-c3ccc(Cl)cc3)c2=O)c1 | -2.6% | 5.8%
O=C(Nc1ccc(Br)cc1F)C1CCN(c2nc3ccccc3[nH]2)CC1 | -19.2% | -5.6%
CCCCN(CC)CCCNC(=O)c1cc2c(=O)oc3ccc(C)cc3c2s1 | -13.0% | -36.8%
CC1=C(C)CC(C(=O)NC(c2ccccc2)c2ccccc2)C(C(=O)O)C1 (configuration not stated) | -8.8% | -3.0%
COc1ccc(Cl)cc1NC(=O)CSCc1cc(=O)c2cc(F)ccc2[nH]1 | 32.9%[activator] | 1.0%
Cc1cc([N+](=O)[O-])ccc1N=C/C(Br)=C/c1ccccc1 | 28.7% | 111.5%[activator]
CCNC(=O)NC(=O)C(Cl)c1ccccc1 (configuration not stated) | -7.2% | -4.3%
c1ccc2c(-n3nnnc3SCc3nc4ccccc4[nH]3)cccc2c1 | -14.0% | u
COc1cc2nc(NC(=O)c3ccc(F)cc3Br)sc2cc1OC | -21.5% | 32.8%[activator]
CC(C)N(c1ccccc1)c1ccc(NC(=O)c2cccc(N(C)C)c2)cc1 | -3.9% | u
CCc1nnsc1C(=O)N(C)Cc1ccc(F)cc1F | 6.0% | 9.1%
COc1cc(C2SCC(=O)Nc3[nH]ncc32)ccc1OC(C)C (configuration not stated) | -22.7% | -16.6%
CC(NC(=O)C1CC1c1ccccc1)C1CC2CCC1C2 (configuration not stated) | 30.3%[activator] | 0.0%
Cc1ccc(N(CCC#N)C(=O)CN(C)CC(=O)Nc2ccccc2Cl)cc1 | 7.6% | -12.8%
CN(C)C(=O)c1ccc(NC(=O)c2cc(-c3ccncc3)nc3ccccc23)cc1 | 17.9% | 0.0%
COc1ccc(-c2ocnc2C(=O)Nc2ccc(C)c(F)c2)cc1OC | -0.8% | 3.3%
COc1ccc(C(C)=O)c(OS(=O)(=O)c2ccc3c(c2)CCC3)c1 | 60.3%[activator] | 26.7%
COc1ccc(-c2c(C)[nH]n3c(=O)c(Cl)c(C)nc23)cc1 | -2.6% | 2.6%

6 compounds already listed, sorted by count of non-hydrogen atoms, low to high.
SMILES | StopGo RLuc | 2A firefly
CCNC(=O)NC(=O)C(Cl)c1ccccc1 (configuration not stated) | -7.2% | -4.3%
CCc1nnsc1C(=O)N(C)Cc1ccc(F)cc1F | 6.0% | 9.1%
CC(NC(=O)C1CC1c1ccccc1)C1CC2CCC1C2 (configuration not stated) | 30.3%[activator] | 0.0%
CCc1cccc(-n2c(C)nc3c(cnn3-c3ccc(Cl)cc3)c2=O)c1 | -2.6% | 5.8%
Cc1ccc(N(CCC#N)C(=O)CN(C)CC(=O)Nc2ccccc2Cl)cc1 | 7.6% | -12.8%
CCc1ccc2c(c1)c(=O)c(S(=O)(=O)c1ccc(F)cc1)cn2CC(=O)Nc1ccccc1OC | -8.4% | -15.9%

Complete entries as entered above. Screens in order: StopGo RLuc, 2A firefly
Results for Cc1cc([N+](=O)[O-])ccc1N=C/C(Br)=C/c1ccccc1 : 28.7%, 111.5%[activator]
Results for Cc1ccc(N(CCC#N)C(=O)CN(C)CC(=O)Nc2ccccc2Cl)cc1 : 7.6%, -12.8%

Later entries:
SMILES | StopGo RLuc | 2A firefly
Cc1cc2oc(=O)cc(CN3CCN(c4ccccc4)CC3)c2cc1Cl | -4.3% | 3.3%
COc1ccc(C(=O)CC(c2ccc(OC)cc2)S(=O)(=O)c2ccc(C)cc2)cc1 (configuration not stated) | 35.2% | 24.6%
COc1ccc(CCNC(=O)c2ccc3c(c2)N(Cc2ccccc2)C(=O)c2ccccc2S3=O)cc1OC (configuration not stated) | 15.4% | 9.6%
COc1ccc(-c2csc(-c3c(N)c(C(=O)c4ccccc4)n4ccccc34)n2)cc1OC | -2.2% | 6.0%
COc1ccc(NC(=O)c2cnn(-c3ccc(F)cc3F)c2C2CCN(C(=O)OC(C)(C)C)CC2)cc1Cl | -1.8% | -22.2%
CCOc1ccccc1Oc1c(C)oc2cc(OC(C)=O)ccc2c1=O | 31.7%[activator] | 20.8%
CCOC(=O)NC(CNC(=O)c1ccccc1)CC(C)C (configuration not stated) | 7.1% | 16.7%
CCCCN(C)C(=O)C(=O)c1c(C)[nH]c2ccccc12 | 10.4% | -7.4%
CCN(C(=O)COC(=O)c1cn(C)c2ccccc12)c1ccc(F)cc1 | 10.5% | -5.3%
COc1cccc(CNC(=O)c2ccc(-c3nc(CSc4ccccc4)c(C)o3)cc2)c1 | -1.5% | -6.0%
COc1ccc(C)cc1NC(=O)C1CCN(S(=O)(=O)c2ccc3[nH]c4c(c3c2)CCCCC4)CC1 | 1.3% | -20.5%
CCn1cc(C(=O)NCCCN(CC(C)C)CC(C)C)c(=O)c2cc(S(=O)(=O)N(C)C3CCCCC3)ccc21 | 1.0% | -20.6%
Cc1noc(/C=C\c2ccc(S(=O)(=O)N3CCN(C4CCCCC4)CC3)cc2)c1NC(=O)C1CC1 | 1.5% | -29.5%
COc1ccc(-c2noc(Cn3c(=O)c4ccccc4n(CC(=O)Nc4cccc(C(F)(F)F)c4)c3=O)n2)cc1 | u | -26.5%
CCc1ccc(-n2c(=O)c3c4c(sc3n(Cc3ccc(F)cc3)c2=O)CCCC4)cc1 | -11.6% | 9.9%
CCOc1ccc(CNC(=O)c2cc3ccccn3n2)cc1OC | 25.7% | 35.9%
CCOc1ccc(NC(=O)c2cc3c(=O)n(Cc4cccs4)ccc3nc2C)cc1 | 10.1% | -6.8%
O=c1c(N2CCc3ccccc3C2)csc2ccccc12 | 95.7%[activator] | 65.8%[activator]
COC(=O)CC(NC(=O)c1ccc(C#N)cc1)c1ccc(C)cc1 (configuration not stated) | 16.3% | -0.3%
Cc1ccccc1OCCCn1c(CCNC(=O)C2CCCCC2)nc2ccccc21 | -7.6% | 5.9%

Random excerpt: 2 records from the list, in no set order.
SMILES | StopGo RLuc | 2A firefly
CCOc1ccc(NC(=O)c2cc3c(=O)n(Cc4cccs4)ccc3nc2C)cc1 | 10.1% | -6.8%
COc1ccc(C)cc1NC(=O)C1CCN(S(=O)(=O)c2ccc3[nH]c4c(c3c2)CCCCC4)CC1 | 1.3% | -20.5%

New compounds follow:
SMILES | StopGo RLuc | 2A firefly
FC(F)(F)c1ccccc1CNCc1ccccc1 | 13.9% | 0.7%
CC(=O)N1CCCc2cc(S(=O)(=O)Nc3ccc(Cl)cc3F)ccc21 | 62.9%[activator] | -6.6%
COc1ccccc1NC(=O)C1=C(C)Nc2nc(SCC(=O)c3ccc(C)cc3)nn2C1c1ccccc1C (configuration not stated) | -8.5% | -13.0%
O=C(COc1ccccc1F)Nc1ccc(-c2nc3ccccc3s2)cc1 | 0.6% | 51.6%[activator]
CCOC(=O)C1CCC(CNC(=O)Nc2c(NC3CCCC3)c3ccccc3oc2=O)CC1 (configuration not stated) | 3.7% | -3.3%
O=c1[nH]c(N2CCCCC2)nc2nccc(-c3ccsc3)c12 | -1.2% | 10.2%
Cc1cccc(-n2c(CC3C(=O)Nc4ccc(C)cc43)nc3ccccc3c2=O)c1 (configuration not stated) | 6.5%&19.9% | -8.2%&-18.3%
COc1ccc(C2CC(=O)c3c([nH]c(C(=O)OC4CCCCCC4)c3C)C2)cc1OC (configuration not stated) | -11.1% | -4.1%
CCN1CC(CN(C)Cc2nnc(C(C)(C)C)o2)Oc2ccccc21 (configuration not stated) | -3.4% | -6.1%
CC(C)CC(NC(=O)CC(C)(C)CC(=O)O)c1ccccc1 (configuration not stated) | -5.2%[1.06 µM] | 22.0%
COc1cccc(C2C(C#N)=C(N)OC3=C2C(=O)CC(c2ccccc2)C3)c1 (configuration not stated) | 30.5%[activator] | 0.1%
COCc1nn2c(c1-c1ccccc1)NC(=O)CC2C(=O)Nc1ccccc1Cl (configuration not stated) | -11.4% | -8.9%
CCN(CC)S(=O)(=O)c1ccc2c(c1)N(CC(=O)Nc1cccc(C#N)c1)C(=O)CO2 | 14.1% | 41.3%[activator]
O=C(CSc1nnc(-c2ccncc2)o1)Nc1ccc2c(c1)OCO2 | -3.2% | 25.5%
COc1ccc(CN2C3=N[C@H](c4ccccc4)CC(=O)N3/C(=C\c3ccccc3)C2c2ccco2)c(OC)c1 (some centres not stated) | 0.0% | 1.1%
COc1ccc(-c2nc3cc(NC(=O)c4ccccc4)ccc3o2)cc1 | 17.4% | 82.5%[activator]

Structures from the list above containing a COOH group, in the order listed:
SMILES | StopGo RLuc | 2A firefly
O=C(O)c1cccc(CSc2ccc3c(c2)OCCO3)c1 | 18.9% | -83.6%
CC1=C(C)CC(C(=O)NC(c2ccccc2)c2ccccc2)C(C(=O)O)C1 (configuration not stated) | -8.8% | -3.0%
CC(C)CC(NC(=O)CC(C)(C)CC(=O)O)c1ccccc1 (configuration not stated) | -5.2%[1.06 µM] | 22.0%

High-throughput results: PubChem, National Center for Advancing Translational Sciences (NCATS)
